# Six1-Eya2 inh: blocks human Six1 binding to Eya2. activity change, % (test concentration not listed). AlphaScreen GST-Six1/His-Eya2 binding, biochemical; stronger effect = lower value; control for the full effect not named in the record. 360,000 compounds, 0.56% hits. AID 651725. Q15475+O00167; in the data active = activity change below about -65%; inconclusive = about -30% to -65%; inactive = above about -30%; further: on the % scale 0 is the no-effect control and ±100 the full control effect
#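 GST-Six1 + His-Eya2 (5X stock: 250/500 nM); Tris pH 8.0, 300 mM NaCl, 0.05% BSA, 0.02% Tween 20; GSH donor/Ni acceptor beads; 1 h 37 °C dark; AlphaScreen readout.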
# D2 PAM: human D2 receptor positive allosteric modulation | P14416 | DiscoveRx D2 beta-arrestin cells, luminescence, 90 min; 100% = 57 uM dopamine signal | potentiation, % (no concentration beside the values) | 360,000 compounds, 0.23% hits; active = potentiation of 50% or more; inconclusive = 30% to 50%; inactive = 30% or less;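 further: compound concentration not given in the record; tested on top of an EC20 dose of dopamine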
# Target sequence (P14416 whole entry, looked up): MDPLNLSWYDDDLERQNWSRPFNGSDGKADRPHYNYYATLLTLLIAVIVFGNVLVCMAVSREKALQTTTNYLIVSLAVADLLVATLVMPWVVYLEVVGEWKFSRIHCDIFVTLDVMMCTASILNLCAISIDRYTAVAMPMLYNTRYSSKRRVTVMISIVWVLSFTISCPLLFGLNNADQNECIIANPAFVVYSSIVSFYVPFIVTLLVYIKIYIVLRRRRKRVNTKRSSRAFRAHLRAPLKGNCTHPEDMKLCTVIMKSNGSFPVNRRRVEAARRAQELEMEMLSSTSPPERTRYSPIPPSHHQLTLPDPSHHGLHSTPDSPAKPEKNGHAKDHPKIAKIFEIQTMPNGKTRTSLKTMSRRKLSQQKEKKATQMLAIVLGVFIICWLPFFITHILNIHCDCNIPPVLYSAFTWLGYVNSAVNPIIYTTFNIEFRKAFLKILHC
#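 PathHunter D2 cells, attached overnight at 37 deg C, received compound in DMSO plus dopamine at EC20 (50 nM final) for 90 min at 37 deg C. Beta-arrestin recruitment was read as luminescence after 1 h with detection reagent at ambient temperature.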
# TRPV1 PAM: potentiators of human vanilloid receptor 1 (TRPV1); Q8NER1; TRPV1-expressing cells, Fluo-8 calcium influx, capsaicin EC20 potentiation; host cell line not named in the record; control for the full effect not named in the record; 320,000 compounds, 0.02% hits; AID 540277; potentiation, % at 8.33 µM; active means potentiation above 80%; inconclusive means 30% to 80%; inactive means below 30%; further: 0% is about no effect
#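 Cells expressing TRPV1 were dye-loaded with Fluo-8 and read kinetically: 10 s baseline, 3 min after compound (agonist portion), then 2 min after EC20 capsaicin (allosteric enhancer portion). Calcium-bound dye fluorescence at 480/520 nm.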
# Sfp inh: inhibitors of Bacillus subtilis Sfp phosphopantetheinyl transferase; Q9F4F7; Potency, µM, for the others: max response, negative = inhibition, hits mostly inhibitors; 310,000 compounds, 3.5% hits; Biochemical Sfp PPTase activity, qHTS; active means well fitted inhibition curve with a large enough effect; inconclusive means small, poorly fitted or top-dose-only effect, or another doubt; inactive means no such curve, though single readings can be large or run the other way;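 further: the enzyme is Sfp with the accession as filed and its product quenches rhodamine fluorescence; potency means the concentration at half of the fitted maximal effect; 0% = enzyme reaction without inhibitor and -100% = no enzyme wells; top concentration of the series not given in the record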
#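 Fluorescence-quenching assay with 15 nM Sfp, 5 uM rhodamine-CoA and 12.5 uM BHQ-2-labelled ybbR peptide in pH 7.6 Hepes/MgCl2 buffer. Enzyme was pre-incubated with compound for 15 min at room temperature. Rate was taken from the 30-min fluorescence change (525/598 nm).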
# PINK1 modulator: changes PINK1 expression; 410,000 compounds, 0.2% hits; Potency, µM (doses to about 76.6 µM), inactives show top-dose activation (PINK1 increase), most hits filed as activators; AID 624263; PINK1 immunofluorescence, high-content cytometry, 24 h; active = well fitted activation curve with a large enough effect; inconclusive = small, poorly fitted or top-dose-only effect; inactive = flat fitted curve, though single readings scatter; cell line not stated here;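 further: potency means the concentration at half of the fitted maximal effect; % of control where 0% means no effect; nearly all actives have a fitted effect of over 65% in size; a mitochondrial uncoupler was the plate control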
#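 Decision-based qHTS: stable cells, 24 h exposure to five compound concentrations, CCCP as control. Fixed cells stained for PINK1 plus nuclear, mitochondrial and cell markers, cytometer read.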
# CtBP-E1A blk: inhibitors of CtBP/E1A interaction | AlphaScreen GST-E1A/His-CtBP binding, 1536-well; stronger effect = lower value; control for the full effect not named in the record | 340,000 compounds, 0.49% hits | AID 651724 | activity change, % (no concentration beside the values); in the data active means activity change below about -65%; inconclusive means about -30% to -65%; inactive means above about -30%; further: on the % scale 0 is the no-effect control and ±100 the full control effect
#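 AlphaScreen with 125 nM GST-E1A and 125 nM His-CtBP (5X stocks) in Tris pH 8.0, 300 mM NaCl, BSA, Tween 20, TCEP. Compounds preincubated 2 h at 37 deg C, then glutathione donor/nickel acceptor beads added for 1 h at 37 deg C in dark.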
# D2 ag: activates the human D2 dopamine receptor; DiscoveRx PathHunter D2 beta-arrestin, luminescence, 90 min; 100% = 57 uM dopamine signal; activation, % (test concentration not listed); 360,000 compounds, 0.084% hits; AID 624465; in the data active = activation above about 40%; inconclusive = about 15% to 40%; inactive = below about 15%; further: compound concentration not given in the record; the text of the record calls up to 30% inactive
#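 Agonist mode: compounds alone added to overnight-plated D2 PathHunter cells for 90 min at 37 C, with 57 uM final dopamine (EC100) defining full response. Beta-arrestin recruitment detected by chemiluminescent reagent, read after 1 h at ambient temperature.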
# Starred values were filed as active, the others as inactive; ? = inconclusive; . = no result given; & = joins results of further samples; [ ] = remark or other dose.
SMILES,Six1-Eya2 inh,D2 PAM,TRPV1 PAM,Sfp inh,PINK1 modulator,CtBP-E1A blk,D2 ag
COc1ccc(Oc2cnn(-c3ccccc3)c(=O)c2Br)cc1,9,-3,-8,-10%,0.2%,7,-1.5
CCOC(=O)C1(Cc2cccc(Cl)c2)CCCN(C(=O)CN2C(=O)CSC2=O)C1 (stereo unspecified),1,-4,-4,8%,1.2%,4,-0.5
O=C(Nc1cccc(F)c1)C1CCCN1C(=O)OCc1ccccc1 (stereo unspecified),4,-11,-2,16%,1.7%,-8,-3.4
O=C(COC(=O)c1ccc(Cl)nc1)NCCNC(=O)COC(=O)c1ccc(Cl)nc1,9,23,-6,.,1.5%,-2,-0.3
COc1ccc(-c2c(C)n([O-])c(C)c(C)[n+]2=O)cc1,7,-8,1,13%,0.6%,6,-2.7
COc1cccc(N2CCN(C(=O)CCc3nnc4ccc(N5CCCC5)nn34)CC2)c1,-6,-15,10,6%,0.8%,-4,1.3
CCOC(=O)C1=C(N)N(c2ccccc2Oc2ccccc2)C(=O)C1,-11,-11,-14,9%,-2.2%,-4,-4.4
O=C(Nc1ccc(F)cc1F)c1csc(-c2ccncc2)n1,4,-8,-9,9%,-0.7%,9,-0.7
COCCNC(=O)C(=O)NCCN1CCNCC1,5,-1,-2,19%,-1.2%,2,0.3
CC(=O)Nc1ccc(NC(=O)CSc2ccc(C(F)(F)F)cc2[N+](=O)[O-])cc1,7,-5,-1,-2%,8.6%,-16,-5.4
CCOC(=O)c1c(-c2ccc(C)o2)csc1NC(=S)NC(=O)c1ccccc1Br,-15,-18,6,3.5µM*,19%[38.3 µM],-15,-4.3
CCc1ccc(NS(=O)(=O)c2ccc3c(c2)CCN3C(=O)CCC(=O)O)cc1,3,-4,8,14%,-1.8%,-8,-1.4
COc1cc([N+](=O)[O-])ccc1NC(=O)CC(C)C,0,-14,-5,2%,-0.1%,0,2.3
CCc1cc(C(=O)N2CCc3c([nH]c4ccccc34)C2c2ccc(OC)cc2F)no1 (stereo unspecified),-6,-9,4,-26%,0.2%,.,6.3
CCOc1[nH]n(-c2ccccc2)c(=O)c1C=Nc1ccc(Cl)cc1,-10,-14,8,11%,5.5%,-13,-2.7
CCCOn1nnnc1-c1ccccc1,5,-3,1,29%,0.0%,8,-2.0
N#Cc1ccccc1S(=O)(=O)N1CCN(CC(O)CN2CCOCC2)CC1 (stereo unspecified),5,-2,-7,.,1.3%,5,-3.3
COc1ccc(OC)c(C(=O)c2coc3ccc(OC(C)=O)cc23)c1,-15,2,-2,-10%,3.9%,-7,-0.3
CC(=O)Nc1ccc(S(=O)(=O)N2CCN(Cc3ccccc3[N+](=O)[O-])CC2)cc1,-4,-4,8,5%,11%,-6,1.9
C=CCSc1nc(N)c2c(C)c(C)sc2n1,-2,-5,-4,2%,-0.8%[38.3 µM],-4,1.3

# Looked up by compound from above (2):
SMILES,Six1-Eya2 inh,D2 PAM,TRPV1 PAM,Sfp inh,PINK1 modulator,CtBP-E1A blk,D2 ag
COCCNC(=O)C(=O)NCCN1CCNCC1,5,-1,-2,19%,-1.2%,2,0.3
COc1cccc(N2CCN(C(=O)CCc3nnc4ccc(N5CCCC5)nn34)CC2)c1,-6,-15,10,6%,0.8%,-4,1.3

# The list continues.
SMILES,Six1-Eya2 inh,D2 PAM,TRPV1 PAM,Sfp inh,PINK1 modulator,CtBP-E1A blk,D2 ag
Cc1cccc(Nc2nc3c(c(=O)n(C)c(=O)n3C)n2Cc2ccccc2)c1,28,-16,2,-15%,?,0,-4.7
COc1cc(/C=N/NC(=O)c2cc(-c3ccccc3)sc2N)cc(OC)c1OC,-29,?,-15,3%,-1.1%,-28,3.2
CN1CCN(C2=Cc3ccccc3Sc3cc(F)c(Cl)cc32)CC1,-27,-45,-6,?,8.4%,-29,-2.5
CCn1c(O)c(/C=C2\C=Nc3ccccc32)sc1=O,0,1,6,12%,4.4%,-5,-0.6
CCCNC(=O)c1ccc(-c2nc3ccccc3s2)s1,-10,-17,-4,-13%,7.4%,-4,-3.6
CC(Oc1ccccc1)C(=O)N1CCN(c2ccc(N3CCOCC3)nn2)CC1 (stereo unspecified),3,-1,9,.,0.7%,-14,1.7
COc1ccc(OC)c(NC(=O)c2nnn(CCc3ccccc3)c2N)c1,-7,3,7,11%,8.5%,-2,6.8
CN(CCN1CCc2ccccc2C1)Cc1nc(-c2ccc3c(c2)OCO3)no1,-7,-15,8,2%,-0.6%,1,4.0
Cc1cc(C)c(S(=O)(=O)N2CCOCC2)cc1NS(=O)(=O)c1cc(OCC(N)=O)c(C)cc1Cl,2,-1,4,4%,0.2%,2,5.1
CNC(=S)N/N=C/C1=CCC2CC1C2(C)C (stereo unspecified),3,-17,-22,-2%,7.7%,3,-1.5
CCOc1ncccc1C(=O)OCC(=O)Nc1ncc(C(F)(F)F)cc1Cl,11,-6,?,15%,1.0%,1,-1.8
CC1Cc2ccccc2N1C(=O)CCn1c(=O)oc2ccccc21 (stereo unspecified),1,0,1,-18%,1.4%,3,0.3
Cc1cc(C)nc(NS(=O)(=O)c2ccc(NC(=O)c3snnc3C)cc2)n1,-2,-12,-3,5%,-0.7%,-5,-2.0
O=[N+]([O-])c1ccc2c(c1N1CCCCC1)=NC1(CCCCC1)[N+]=2[O-],-6,8,0,25µM*,1.1%,-12,2.4
COc1ccc(S(=O)(=O)Nc2cc3c4c(c2)CCN4C(=O)CC3)cc1C,-10,-1,-15,.,5.0%,-1,-0.9
CC(C)C1N=C2c3ccccc3N=C(SCc3cc(=O)n4cc(Cl)ccc4n3)N2C1=O (stereo unspecified),0,-10,-5,10%,-0.7%,3,-4.0
O=c1c2c3nc4ccccc4nc3n(/N=C/c3ccncc3)c2ncn1-c1ccccc1,-2,-2,4,17%,5.4%,.,-1.1
CCc1ccc(C2C(C#N)=C(N)Oc3n[nH]c(CC(=O)OC)c32)cc1 (stereo unspecified),-1,-9,?,9%,1.3%,-1,-3.4
COc1ccccc1N1CCN(Cc2ccsc2)CC1,-1,-8,0,?,0.4%,-14,3.5
COc1ccc(SC[C@H](Cc2ccccc2)N2CCN(CCc3ccccc3)CCC2=O)cc1,-25,-96,-15,?,?,-4,0.7
C=CCN=C1N[C@@H](c2ccccc2)C(C(=O)OC)=C(C)N1CC,1,-7,2&14,12%&2%,1.4%,5,-1.7
COCCNC(=O)c1ccccc1NC(=O)C1COc2ccccc2O1 (stereo unspecified),6,2,-6,21%,-1.1%,-2,-2.5
O=C(c1ccccc1)c1cn[nH]c1-c1ccccc1O,5,-10,?,10%,-0.9%,2,0.9
CCN(CC)C(=O)N1CCN(S(=O)(=O)c2c(C)cc(C)cc2C)CC1,-2,-1,-3,7%,-3.2%,-28,0.3
CCOCC(=O)Nc1nnc(Cc2ccc(OC)c(OC)c2)s1,4,-2,3,-3%,-1.9%,-8,-0.4
CC(C)c1ccccc1NC1=CC(=O)CC(C)(C)C1,0,-8,-6,5%,0.0%,0,-2.6
CC(=O)c1c(C)[nH]c(C(=O)Nc2cccc(C(F)(F)F)c2)c1C,-8,-14,-16,-2%,?,-6,-2.0
COC(=O)c1ccc(Cn2nnc3c(=O)[nH]c(C4CCCN(S(=O)(=O)c5ccccc5Cl)C4)nc32)cc1 (stereo unspecified),1,-3,-5,-13%,-1.3%&2.4%,3,0.1
COc1ccc(NC(=O)NCCN2C(=O)C3C4C=CC(C4)C3C2=O)cc1 (stereo unspecified),-2,-4,2,-1%,3.3%,5,-1.4
Cn1c(=O)c2c(-c3ccccc3)n(-c3ccccc3S)cc2n(C)c1=O,0,.,.,.,0.6%,4,-0.2
CCc1csc(CCNC(=O)C2CCC(=O)N(Cc3ccccc3F)C2)n1 (stereo unspecified),-12,-4,18,21%,-0.9%,-1,4.2
C=CCn1c(SCC(=O)N2CCCC2)nc2cc(C(=O)NCC3CCCO3)ccc2c1=O (stereo unspecified),3,-5,10,10%,0.4%[38.3 µM],-3,1.1
C/C(CC(=O)Nc1cccc(Br)c1)=N\NC(=O)c1ccc(O)cc1O,-1,-2,-17,4%,-1.7%,-2,-1.7
CC(=O)Nc1ccc2nc(NC(=O)CCc3ccccc3)sc2c1,-2,-12,-1,15%,0.3%,0,5.9
COc1ccc(-n2nnnc2SC(C)C(=O)NCC(=O)Nc2ccc(F)c(F)c2F)cc1 (stereo unspecified),-6,-5,1,-4%,1.9%,9,3.4
CCn1c(SCc2nc3ccccc3c(=O)[nH]2)nnc1-c1cccnc1,1,-10,-12,-4%,?,1,-2.0
CCO/C=N/Nc1nc(C(F)(F)F)nc2c1cnn2Cc1ccccc1,-4,-4,-3,25%,?,1,6.9
CN(CC(=O)Nc1ccccc1Br)C(=O)c1ccc(COc2ccccc2)cc1,?,-22,2,-3%,0.7%,15,-0.9
Nn1c(SCc2ccccc2)nnc1C1CCCCC1,5,-5,-6,14%,-1.6%,-14,-5.2
CN1CCN(c2ccc(S(=O)(=O)N3CCCCC3)cc2NC(=O)c2ccc(F)cc2F)CC1,-13,-1,?,7%,1.8%,-13,-0.2

# Copied from the list:
# `C=CCn1c(SCC(=O)N2CCCC2)nc2cc(C(=O)NCC3CCCO3)ccc2c1=O` (stereo unspecified) @ Sfp inh: 10%
# `CN(CC(=O)Nc1ccccc1Br)C(=O)c1ccc(COc2ccccc2)cc1` @ TRPV1 PAM: 2
# `C/C(CC(=O)Nc1cccc(Br)c1)=N\NC(=O)c1ccc(O)cc1O` @ D2 PAM: -2
# `Nn1c(SCc2ccccc2)nnc1C1CCCCC1` @ D2 PAM: -5

# (listing goes on)
SMILES,Six1-Eya2 inh,D2 PAM,TRPV1 PAM,Sfp inh,PINK1 modulator,CtBP-E1A blk,D2 ag
CCN(CC)CCNC(=O)c1ccc2c(c1NCCO)C(=O)c1ccccc1C2=O,?,-15,2,-13%,-0.9%,.,1.0
CC1=CC(C)(C)N(C(=O)CCl)c2cc(C)ccc21,1,-5,1,11%,3.6%,18,-0.5
Cc1ccnc2nc(C(=O)Nc3ccc(N4CCOCC4)cc3)nn12,-13,-6,-2,17%,1.3%,-2,1.5
O=C(COCc1cc(-c2ccc3c(c2)OCO3)on1)N1CCN(c2ccc(F)cc2)CC1,-12,-27,-3,-8%,-0.5%,-11,0.3
Cc1cc(C)c(S(=O)(=O)Nc2ncn[nH]2)cc1C,4,1,-1,11%,1.9%,3,-5.2
COc1ccc(CC(=O)OCC(=O)Nc2ccc(Cl)cc2C)cc1,-4,-6,.,.,0.0%,-8,-4.6
COc1ccccc1NC(=O)N(CCCN1CCOCC1)Cc1cc2cc3c(cc2[nH]c1=O)OCO3,20,-6,-2,-5%,0.1%,-1,-2.1

# Source: PubChem BioAssay
